Screening results (PubChem BioAssay)
HCMV NEC inh: inhibitors of HCMV UL50-UL53 interaction, biochemical, HTRF | HCMV UL50-UL53 nuclear egress complex (human cytomegalovirus) | normalized percent inhibition | inhibition, % (concentration not given with the values) | hit rate 0.15% among 190,000;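 active means both replicates at 50% or more, plus weaker picks with an unusually low signal ratio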;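 further: stock transfer was 100 nL into about 20 µL; 0% = negative control wells and 100% = wells with untagged competitor protein; inactives centre near -12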
GIV Gai3 FP: inhibitors of GIV peptide binding to Galpha-i3, primary screen, biochemical, fluorescence polarization, FITC-GIV GBA peptide, rat Galphai3 | Guanine nucleotide-binding protein G(i) subunit alpha-3 (Rattus norvegicus), P08753 | 90 min; hits give low values; scaled: aluminum fluoride 0%, vehicle 100% | percent of control (FP), % (test concentration not listed) | hit rate 0.42% among 210,000 | AID 1224905, 2016;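 active means replicate mean at 85% of control or lower, very high polarization wells dropped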;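 further: wells of about 15 µL received 100 nL stock; the first replicate is given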
Target sequence (P08753 whole entry, looked up): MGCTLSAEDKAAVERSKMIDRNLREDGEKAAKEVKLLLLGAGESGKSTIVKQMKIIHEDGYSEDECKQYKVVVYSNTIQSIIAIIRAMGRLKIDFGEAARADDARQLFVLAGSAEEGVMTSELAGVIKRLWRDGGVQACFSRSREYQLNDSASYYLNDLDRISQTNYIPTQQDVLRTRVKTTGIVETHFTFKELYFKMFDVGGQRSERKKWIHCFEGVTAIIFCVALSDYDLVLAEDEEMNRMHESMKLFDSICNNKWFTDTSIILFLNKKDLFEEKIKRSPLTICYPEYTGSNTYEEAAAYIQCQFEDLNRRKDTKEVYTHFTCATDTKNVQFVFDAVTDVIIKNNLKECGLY
Sa growth 42C: S. aureus growth inhibition at 42 and 30 °C, primary screen, LtaS inhibitor project, RN4220, two temperatures | OD600, 20 h, 42 °C; hits give low values | relative growth, % (test concentration not listed) | hit rate 0.53% among 170,000 | AID 720641, 2013;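 active means growth at 42 °C up to 50% and 20 or more points under that at 30 °C, or under 10% at both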;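 further: 300 nL library stock went into each well; scaled to the means of positive and negative controls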
Sa growth 42C second temp: further read-out of Sa growth 42C, marked with its call; relative growth, %; measured here: growth at 30 °C;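 optical density after 20 h as mean of two plates; 100% = untreated growth and lower means inhibition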
Numbers without * were called inactive; / = no result given; & = joins results of further samples.

SMILES	HCMV NEC inh	GIV Gai3 FP	Sa growth 42C	Sa growth 42C second temp
O=S(=O)(c1ccc(Cl)cc1)N1CCC2(CC1)Nc1ccc(Cl)cc1-n1cccc12	-27	104	/	/
COC(=O)c1ccc(-n2c(C)cc3ccccc32)s1	-7	106	85	90
O=C(CCSCc1ccc(Cl)cc1)N1CCN(c2ccccc2F)CC1	/	103	106	93
CCCC12CN3CC(C)(CN(C1)C(=O)c1ccccc1C3=O)C2=O	-14	105	95	82
Cc1cc(C(=O)OCC(=O)N(C)C2CCCCC2)c2ccccc2n1	-68	/	109	84
CCN(CC)c1nc(C(=O)Nc2ccc(Br)cc2)cs1	-4	/	109	95
Cc1ccccc1C1CCCN1C(=O)NC1CCCC1 (configuration not stated)	5	110	/	/
CC(NC(=O)CCSCc1ccccc1F)c1ccccc1 (configuration not stated)	/	95	123	87
Cc1ccc(NC(=O)c2ccc3nnc(SCC(=O)Nc4ccc(F)cc4)n3c2)cc1	-33	102	/	/
S=C(Nc1ccc2c(c1)OCO2)Nc1cnccn1	-2	101	112	103
CC(C)c1ccc(-c2noc(COC(=O)c3ccc(S(=O)(=O)NCCC#N)cc3)n2)cc1	-21	/	120	88
COc1ccc(-c2nc(CSCC(=O)NC3CCN(Cc4ccccc4)CC3)c(C)o2)cc1OC	6	104	94	86
O=C(Cc1csc(NC(=O)Nc2ccc(Cl)cc2)n1)Nc1ccccc1	-4	115	/	/
CN1C(=O)c2cccc3c(S(=O)(=O)Nc4ccc(O)c(C(=O)O)c4)ccc1c23	/	101	97	83
O=C(c1ccccc1)c1c[nH]c2cc3c(cc2c1=O)OCO3	-32	99	84	80
COc1ccc(C2C(C(=O)OCCOc3ccccc3)=C(C)NC3=C2C(=O)CC(C)(C)C3)cc1OC (configuration not stated)	-11	99	/	/
CCOC(=O)C1=C(CS(=O)(=O)c2ccc(C)c(C)c2)NC(=O)NC1c1ccccc1OCC (configuration not stated)	11	103	108	89
N#CCCN(C(=S)Nc1cccc(C(F)(F)F)c1)C1CCCCC1	-27	107	88	92
N#CCOC(=O)c1ccc(-c2cc(=O)c3ccccc3o2)cc1	-191	96	95	79
N#Cc1nc(-c2ccccc2OC(F)(F)F)oc1N	10	99	99	89
CC1CN(S(=O)(=O)c2cccc(-c3cn4cccnc4n3)c2)CC(C)O1 (configuration not stated)	4	104	92	92
COc1cccc(NC(=O)N2CCCC2c2ccc(Cl)cc2)c1 (configuration not stated)	-22	98	/	/
Cc1ccc(CNc2cc(C)nc3nncn23)cc1	2	111	/	/
COc1ccc(OC)c2c(C)cc(=O)[nH]c12	-4	/	95	97
CCS(=O)(=O)N1CCC(C(=O)O)CC1	-17	100	100	92
Continuation.
SMILES	HCMV NEC inh	GIV Gai3 FP	Sa growth 42C	Sa growth 42C second temp
CC(C)(C)c1cc(C(C)(C)C)n(-c2ccc(N=Cc3ccccc3O)cc2)n1	-10	103	102	114
O=S(=O)(c1ccc2c(c1)OCCO2)N1CCCC1c1ccccc1F (configuration not stated)	-25	96	/	/
Cc1onc(-c2ccccc2Cl)c1C(=O)Nc1ccc2[nH]c(=O)oc2c1	-10	107	/	/
CC(=O)N1CCN(c2nc3c(F)cc(F)cc3s2)CC1	/	102	113	95
Cc1ccc(C(=O)OCC(=O)c2ccc(S(=O)(=O)N3CCCCC3)cc2)o1	0	/	96	93
CC(=O)Nc1ccc(NC(=O)CCc2c(C)nc3c(c(C)nn3-c3ccccc3)c2C)cc1	4	102	94	89
CN(C)c1ccc(Nc2nc3ccccc3n3nnnc23)cc1	-12	105	106	66
COc1ccc(NC(=O)c2ccc(-c3nc(CSc4ccccc4)c(C)o3)cc2)cc1OC	/	106	128	90
c1ccc(C2=Nn3cc(-c4ccccc4)nc3SC2)cc1	-56	/	24	14
CC(=O)NCCc1ccc(S(N)(=O)=O)cc1	-22&-21	/	104	93
C/C(C=NN1CCN(Cc2ccccc2)CC1)=C\c1ccccc1	11	105	100	100
CCCCN(c1nc2ccccc2[nH]c1=O)S(=O)(=O)c1ccc(C)cc1	-35	/	102	89
C=CCn1c(-c2ccccc2)n[nH]c1=S	-2	106&99	84&97	84&61
CCOC(=O)CSc1nc(-c2ccc(OC)cc2)cc(C(F)(F)F)n1	/	102	90	91
CCOC(=O)c1c(S(=O)(=O)NCC(=O)Nc2ccc(C)c(N(C)C)c2)c(C)n(C)c1C	/	98	99	88
COc1ccc(-c2cc(C(=O)N(C)Cc3ccccc3)no2)cc1OC	7	103	97	93
Clc1ncnc2sc3c(c12)CCC3	-3	98	103	16
COc1ccc2nc(SCC(=O)Nc3ccc(N4CCCC4)cc3)c(C#N)cc2c1	-1	104	111	112
COc1ccc(-c2nn3c(N4CCC(C)CC4)cc(C)nc3c2C)cc1OC	-5	108	/	/
O=C(CC1CCN(S(=O)(=O)c2ccc(Cl)cc2)CC1)NCCCN1CCCC1	-17	95	/	/
O=C1CCCC2=C1C(c1ccccc1)NC(=S)N2 (configuration not stated)	/	100	109	84
O=c1cc(CN2CCCc3ccccc32)nc2sccn12	-55&-32	-43*	114	81
CCc1c(N2CCCCC2)nc2n(c1=O)CCCS2	-14	110	/	/
CCNC(=O)CN1C(=O)CCc2cc(S(=O)(=O)N3CCC(C)CC3)ccc21	-16	105	/	/
COc1ccc(-n2nnc(-c3nc(-c4ccc5c(c4)OCO5)no3)c2C)cc1Cl	/	107	99	91

6 compounds from above, showing only HCMV NEC inh and Sa growth 42C second temp.
Molecule | HCMV NEC inh | Sa growth 42C second temp
CCOC(=O)c1c(S(=O)(=O)NCC(=O)Nc2ccc(C)c(N(C)C)c2)c(C)n(C)c1C | / | 88
COc1ccc(-c2cc(C(=O)N(C)Cc3ccccc3)no2)cc1OC | 7 | 93
Clc1ncnc2sc3c(c12)CCC3 | -3 | 16
COc1ccc2nc(SCC(=O)Nc3ccc(N4CCCC4)cc3)c(C#N)cc2c1 | -1 | 112
COc1ccc(-c2nn3c(N4CCC(C)CC4)cc(C)nc3c2C)cc1OC | -5 | /
O=C(CC1CCN(S(=O)(=O)c2ccc(Cl)cc2)CC1)NCCCN1CCCC1 | -17 | /

Other records:
SMILES	HCMV NEC inh	GIV Gai3 FP	Sa growth 42C	Sa growth 42C second temp
Clc1cccc(-c2nc3ccccn3c2Nc2ccc3c(c2)OCCO3)c1	49	98	91	104
O=c1nc2n(c3ncccc13)CCC2	-20	/	79	84
Cc1ccccc1C(=O)N1CCN(c2ncnc3c2c(-c2ccccc2)cn3-c2ccccc2)CC1	-8	104	/	/
Cc1ccc(S(=O)(=O)Nc2ccc3oc(C)c(C(=O)O)c3c2)cc1	0	110	/	/
O=C(c1ccc2c(=O)n(Cc3ccc4c(c3)OCO4)c(=S)[nH]c2c1)N1CCNCC1	/	104	122	89
CC(O)CCC1CCCO1 (configuration not stated)	-13	101	108	90
CC1(C)CC(=O)C2=C(C1)Nc1ccccc1N(C(=O)C(F)(F)F)C2c1ccc(Cl)cc1Cl (configuration not stated)	-5	/	91	88
CCN(c1nc2nc(C)c(Cl)c(C)n2n1)S(=O)(=O)c1ccc(Cl)cc1	-11	102	/	/
COc1ccc(CCCc2nc3ccccc3[nH]2)cc1	-8	/	79	59
N#CCc1ccc(NC(=O)COc2ccc3c(c2)CCC3)cc1	-30	99	91	87
O=C(NCc1ccccc1Cl)c1cnn2c(C(F)(F)F)cc(-c3ccccc3)nc12	-27	101	/	/
Cc1ccc(CN(C)c2nc3ccccc3nc2NS(=O)(=O)c2ccc3c(c2)OCCO3)o1	-6	/	104	86
Cc1nc2c(C(=O)NCCc3ccc(Cl)cc3)cnn2c(C)c1Cc1c(F)cccc1Cl	/	98	116	89
COc1ccc(S(=O)(=O)NCCc2csc3nc(-c4cccc(C)c4)nn23)cc1F	/	98	117	92
CCCCN(CC)c1nc(-c2ccccc2F)nc2ccccc12	/	105	107	85
CC(C(=O)Nc1cccc(N)c1)n1nnc2ccccc21 (configuration not stated)	-30	95	92	99
O=S(=O)(NCc1ccc(Cl)cc1)c1cnc[nH]1	/	103	100	88
CCNc1cc(Nc2ccc(OC)cc2)c([N+](=O)[O-])c2nonc12	-36	102	/	/
Cc1cc(C)c(NC(=O)CN2C(=O)CCC2=O)c(C)c1	-12	104	91	91
CN(C)c1ccc(NS(=O)(=O)c2ccc(F)c(F)c2)cc1C(=O)O	-13	101	/	/
c1ccc(N=C(Nc2ccccc2)N2CCOCC2)cc1	-18	/	91	82
Cc1ccc(-n2nc(C)c3c2N2COCN(C3)c3c(c(C)nn3-c3ccc(C)cc3)C2)cc1	-1	/	96	90
O=C(CN1C(=O)c2ccccc2C1=O)Nc1ccc(S(=O)(=O)N2CCCCC2)cc1	-4	101	98	86
O=C(NC1CCCCCC1)c1ccc(CS(=O)c2ccc(Br)cc2)o1 (configuration not stated)	3	99	108	92
CN(C)c1ccc(C=NCCCN2CCOCC2)cc1	-8	121	99	111

Record cards (already shown). Screens in order: HCMV NEC inh	GIV Gai3 FP	Sa growth 42C	Sa growth 42C second temp
O=C(c1ccc2c(=O)n(Cc3ccc4c(c3)OCO4)c(=S)[nH]c2c1)N1CCNCC1 across the screens: /	104	122	89
Cc1ccc(-n2nc(C)c3c2N2COCN(C3)c3c(c(C)nn3-c3ccc(C)cc3)C2)cc1 across the screens: -1	/	96	90
O=c1nc2n(c3ncccc13)CCC2 across the screens: -20	/	79	84

Later entries:
SMILES	HCMV NEC inh	GIV Gai3 FP	Sa growth 42C	Sa growth 42C second temp
CC(C)CCNC(=O)CCn1c(=O)c2cccn2c2cccnc21	/	99	120	97
Cc1ccc(NS(=O)(=O)c2ccc(-c3cnc(C4CC4)o3)cc2)cc1N(C)C	/	100	103	102
CC(=O)c1cccc(NC(=O)C(CC(C)C)NS(=O)(=O)c2ccc3c(c2)CCN3C(C)=O)c1 (configuration not stated)	-14	103	105	97
COc1ccccc1NC(=O)C1CC=CCC1C(=O)O (configuration not stated)	-3	90	/	/
CCOc1ccc(-c2cn3c(n2)sc2cc(C(=O)N(C)Cc4ccccc4)ccc23)cc1	/	104	96	63
CCCN(CCC)C(=O)Cn1c(SCc2cccc(F)c2)nc2cccnc21	/	103	103	96
O=c1cc(O)nc(-c2ccc(Cl)cc2)s1	-17	97	/	/
CCc1nc2ccccc2c(C(=O)OCC(=O)N(C)Cc2ccccc2)c1C	-21	/	102	88
N#Cc1ccc(C(=O)NCC2CCCCC2)cc1	20	/	100	99
Cc1ccc(CN2CCN(C3CCN(C(=O)CC4CCCCC4)CC3)C(=O)C2=O)cc1	-13	98	/	/
CC(C)OC(=O)c1cn(C)c(=O)c2ccccc12	-34	97	/	/
Cc1c(C(=O)NC2CCOc3ccccc32)oc2ccccc12 (configuration not stated)	-24	/	101	92
O=C(CSc1nnc(-c2ccccc2F)o1)Nc1ccc(S(=O)(=O)NC2=NCCCCC2)cc1	-18	/	96	79
Cc1cccc(CSc2nc3ccncc3n2CC(=O)N(C)C2CCCCC2)c1	-7	99	109	89
COc1cccc(N(CCCN2C(=O)c3cccc4cccc(c34)C2=O)C(=O)c2cccc([N+](=O)[O-])c2)c1	-10	103	/	/
CN(Cc1ccccc1)C(=O)c1cc(=O)c2ccccc2o1	-38	/	118	79
COc1ccc(N2CCN(Cc3nnnn3CCc3ccccc3)CC2)cc1	-16	99	85	98
O=C(NCC1COCCO1)c1cc2n(n1)CCCN(Cc1ccc(F)cc1)C2=O (configuration not stated)	-9	99	/	/
CCSc1nnc(-c2cccc(S(=O)(=O)N3CCOCC3)c2)n1-c1ccc(F)cc1	-19	/	74	92
O=C(NCc1ccc2c(c1)OCO2)c1ccc(-c2noc(C3CC3)n2)cc1	-34	105	/	/
COc1cccc(Cn2c(CNS(=O)(=O)c3ccc(F)c(Cl)c3)nc3cccnc32)c1	/	112	110	108
NCCC12CC3CC(CC(C3)C1)C2	-10	/	110	88
CC1C(=O)OC2(C)CC(C)(C)NC(=S)N12 (configuration not stated)	-24	105	85	90
COc1cc2[nH]c(=O)n(Cc3ccc(C(=O)NCc4ccccc4)cc3)c(=O)c2cc1OC	-3	101	101	88
CC(=O)NCCOc1ccccc1Cl	-5	/	135	84
(more compounds)
SMILES	HCMV NEC inh	GIV Gai3 FP	Sa growth 42C	Sa growth 42C second temp
CC(=O)c1ccc(NC(=O)Cn2nc(C(F)(F)F)c3c2CCCC3)cc1	-28	107	84	84
O=C(CSc1nc2c(c(=O)n1-c1ccccc1)SCC2)N1CCc2ccccc21	-1	100	83	86
Cc1nc(-c2cc(S(=O)(=O)N3CCCC(C(=O)N4CCC(C)CC4)C3)c(C)s2)no1 (configuration not stated)	-13	108	/	/
COC(=O)c1sccc1NC(=S)N1CCCCC1	-24	100	96	82
O=S(=O)(Cc1ccc(F)cc1)c1cn(Cc2ccccc2Cl)c2ccccc12	/	101	88	92
Cc1ccccc1Cn1c2ccccc2c2cnn(CC(=O)NCCCc3ccccc3)c(=O)c21	-10	109	108	88
CN(C)/C=C(\C#N)C(=O)N(C)c1ccc(F)cc1F	-5	113	100	96
COCCN(Cc1cc2c(C)cc(C)cc2nc1Cl)C(=O)c1ccco1	11	104	87	102
CCn1nnc2cc(C(=O)Nc3ccc(C(=O)OC(C)C)cc3)ccc21	-27	/	86	88
CCOC(=O)c1sc(N(Cc2nc(-c3cccc(C)c3)oc2C)C(C)=O)c(C#N)c1C	/	146	94	82
O=C(Nc1ccc2oc(-c3cccnc3)nc2c1)c1ccc(Br)cc1	-53	101	93	83
